# Bioassay records: PubChem, National Center for Advancing Translational Sciences (NCATS)
# Rango-impB inh: inhibitors of Rango-importin beta complex formation; 340,000 compounds, 0.031% hits; Potency, µM (series often up to 92.2 µM), for the others: at the highest dose inhibition of complex formation; Rango CFP/YFP FRET sensor + importin beta, 45 min; Q14974; active = rising FRET ratio curve, often small or poorly fitted; inconclusive = mostly compound fluorescence or quenching in the first reads; inactive = flat curves in all reads;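 note: potency is the fitted concentration of half-maximal effect; 0% = DMSO wells and 100% = buffer wells lacking importin beta; nearly all actives have a fitted effect of over 15% in size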
# Target sequence (Q14974 whole entry, looked up): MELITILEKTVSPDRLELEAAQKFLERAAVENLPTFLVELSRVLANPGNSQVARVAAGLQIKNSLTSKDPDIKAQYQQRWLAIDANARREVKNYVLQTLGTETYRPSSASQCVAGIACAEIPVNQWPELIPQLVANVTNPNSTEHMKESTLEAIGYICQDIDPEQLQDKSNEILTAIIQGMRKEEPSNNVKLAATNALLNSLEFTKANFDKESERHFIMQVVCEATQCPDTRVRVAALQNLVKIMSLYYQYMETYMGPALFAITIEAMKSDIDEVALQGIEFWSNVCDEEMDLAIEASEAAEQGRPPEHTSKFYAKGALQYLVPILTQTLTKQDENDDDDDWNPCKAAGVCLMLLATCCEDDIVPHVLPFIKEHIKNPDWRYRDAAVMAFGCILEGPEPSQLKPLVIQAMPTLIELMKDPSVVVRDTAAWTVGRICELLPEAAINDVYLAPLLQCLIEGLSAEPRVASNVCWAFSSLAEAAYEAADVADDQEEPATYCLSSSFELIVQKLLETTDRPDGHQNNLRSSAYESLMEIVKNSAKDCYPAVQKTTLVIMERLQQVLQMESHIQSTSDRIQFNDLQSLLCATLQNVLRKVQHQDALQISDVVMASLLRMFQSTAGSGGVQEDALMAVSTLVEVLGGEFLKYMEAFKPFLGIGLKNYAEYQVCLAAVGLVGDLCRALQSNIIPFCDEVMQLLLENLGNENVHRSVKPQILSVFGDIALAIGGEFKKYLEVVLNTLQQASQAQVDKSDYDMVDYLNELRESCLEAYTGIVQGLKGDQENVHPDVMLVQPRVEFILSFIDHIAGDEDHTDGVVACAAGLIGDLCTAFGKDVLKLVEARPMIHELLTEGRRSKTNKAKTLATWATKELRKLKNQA
#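 FRET biosensor (snurportin 1 IBB flanked by EYFP and cerulean), 50 nM, with compound 5 min, then 0.125 microM importin beta in PBS, 1 mM DTT, 0.02% Tween-20, 0.1% BSA. CFP/YFP ratio read after 45 min at room temperature; pre-read flags interference.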
# Rango release inh: prevents RanGTP from dissociating the Rango-importin beta complex. O95149+P62826. Biochemical FRET Rango-importin beta, RanGTP-induced dissociation. Potency, µM (series often up to 46.1 µM), for inactives: at the highest dose activity change, negative = inhibition. 340,000 compounds, 0.071% hits. AID 540253; active means falling FRET ratio curve, often poorly fitted, with flat reads before Ran was added; inconclusive means other falling curves, or compound fluorescence or quenching; inactive means flat or rising ratio curve;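 note: potency is the fitted concentration of half-maximal effect; % of control where 0% means no effect; nearly all actives have a fitted effect of over 45% in size; -100% = wells without RanGTP and RCC1; the record marks most hits as doubtful in a second field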
#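 Quantitative HTS using a FRET biosensor: 0.1 uM Rango, 0.25 uM importin beta, 0.6 uM Ran, 2 mM GTP, 0.2 uM RCC1 final, PBS with DTT, Tween-20 and BSA. Post-read taken 45 min after Ran addition.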
# miR-21 FLuc: miR-21 reporter, rising signal; HeLa miR-21 FLuc reporter, luciferase, 48 h; Potency, µM (highest dose often 38.3 µM), for inactives: at the highest dose reporter change, positive = more light; 340,000 tested, under 10 active; AID 2288; active = well fitted rising curve with a large enough effect; inconclusive = small, poorly fitted or top-dose-only effect; inactive = no such curve, though single readings can be large or run the other way;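 note: % of control where 0% means no effect; miR-21 action dims this reporter so a rising signal means less miR-21 action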
#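 HeLa cells stably expressing CMV-driven firefly luciferase with a downstream miR-21 binding sequence, endogenously expressing miR-21, were treated with titrations (up to about 40uM final) for 48 hours at 37 degree Celsius. Luciferase luminescence was read after lysis.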
# GLA inh pH 4.5: alpha-galactosidase A (human) inhibition, pH 4.5. P06280. purified enzyme, 4-MU-alpha-Gal fluorescence, pH 4.5. activity change, negative = inhibition, % at 105 µM. 230,000 tested, under 10 active; inconclusive = small, poorly fitted or top-dose-only inhibition, or a rising curve; inactive = flat fitted curve, though single readings scatter; no compound was filed as active;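 note: 0% = full activity with enzyme and -100% = basal without enzyme; dose as in the result columns while the protocol names 77 µM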
# * hit, by the source's call; ? = inconclusive; nt = no result given; & = joins results of further samples; [ ] = remark or other dose.
SMILES,Rango-impB inh,Rango release inh,miR-21 FLuc,GLA inh pH 4.5
CCCCCn1c(CN2CCCCC2CC)nc2c1c(=O)n(C)c(=O)n2C (configuration not stated),1.5%,21%,-3%,-1
O=S(=O)(NCc1ccccc1)c1ccc2c(c1)OCCO2,-1.5%,2%,1%,5
N#Cc1c(-c2ccccc2F)cc(-c2cccnc2)nc1N,-2.7%,3%,-3%,?
CCn1ccnc1CNC(=O)c1ccc(OC2CCN(C(=O)COC)CC2)cc1,-6.0%,-4%,-1%,nt
O=C1NC[C@@H](c2ccccc2)OC(=O)[C@H](Cc2ccc(F)cc2)C/C=C\C[C@H]1CC(=O)N(CCO)Cc1ccccc1,1.7%,0%,nt,nt
Cc1cccc(Cn2ccc(N)n2)c1,3.3%,18%,-5%,0
COc1ccc(OC)c(C(=O)c2coc3ccc(O)c(CN4CCOCC4)c23)c1,3.3%,13%,-6%,-6
COc1ccc(N(C(=O)c2cccc([N+](=O)[O-])c2)S(=O)(=O)c2cccs2)cc1,1.6%,-4%,3%,-5
CCc1cc(C(=O)OC)c(NC(=O)CN2CCN(C(=O)C3CCCO3)CC2)s1 (configuration not stated),?,14%,-3%,nt
COc1ccc(C(CC(=O)N2CCCCC2)NC(=O)C(F)(F)F)cc1 (configuration not stated),-4.0%,-4%,1%,5
Cc1c(Cl)cccc1NC(=O)CSc1ncnc2c1cnn2CCO,-2.2%,1%,2%,nt
CCc1c(C#N)c(SCCC(=O)Nc2ccc(C)cc2)nc2c1C(=O)CC(C)(C)C2,-0.2%,12%,-1%,-16
Cc1cccc(Oc2ccccc2NS(=O)(=O)c2ccc(CCC(=O)O)cc2)c1,0.7%,-7%,nt,nt
COc1ccc(N2CCN(C(=O)c3cc(=O)c4cc(Cl)ccc4o3)CC2)cc1,-2.8%,17%,4%,nt
Cc1ccc(CNC(=O)COC(=O)c2ccc(S(=O)(=O)N3CCOCC3)cc2)cc1,3.1%,1%,nt,nt
CCOc1ccccc1C(=O)Nc1cnn(Cc2ccc(F)cc2)c1,?,15%,-12%,-3
COc1ccc(-c2csc(/C(C#N)=C(\O)CSc3nccn3C)n2)cc1OC,?,-2%,-23%,0
CCOCCCNCC(O)c1ccccc1 (configuration not stated),-0.2%,1%,-11%,5
COc1nc(NC(C)(C)C)nc(Oc2ccc(=O)n(-c3ccccc3)n2)n1,-4.8%,8%,-24%,-1
COc1ccc(-c2cc(C(=O)N3CC(C)CC(C)C3)c3ccccc3n2)cc1 (configuration not stated),0.1%,-13%,nt,nt
Cc1ccccc1C(=O)OC(C)CN1CCOCC1 (configuration not stated),0.7%,18%,-9%,5
C=CCNC(=O)COC(=O)c1cc(S(=O)(=O)N2CCOCC2)ccc1N1CCCCC1,-3.3%,-3%,-4%,-11
COC(C(=O)NNC(=O)Cc1ccc(Cl)cc1)c1ccccc1 (configuration not stated),5.0%,2%,1%,-1
COc1cc(C(C(=O)NC(C)(C)C)N(Cc2ccccc2)C(=O)c2cnccn2)cc(OC)c1OC (configuration not stated),0.4%,-6%,-7%,8
CCC(=O)NNC(=O)c1cc(COc2cc(Cl)cc(Cl)c2)on1,2.4%,26%,1%,3
Cc1ccc(S(=O)(=O)Nc2ccccc2/C=N/c2nc3ccccc3n2C)cc1,?,8.2µM*,?,4
CC(=O)/C(=N\Nc1ccccc1)Sc1cccc2cccnc12,0.7%,9%,-22%,1
Cc1nc(SCCOc2ccccc2)[nH]c(=O)c1Cc1ccccc1,-2.2%,-7%,-2%,-1
Cn1c(NC(=O)c2ccco2)cc(=O)n(C)c1=O,0.0%,13%,1%,-7
CCC(C)NC(=O)C(Cc1ccccc1)NS(=O)(=O)c1ccc2c(c1)CCC(=O)N2 (configuration not stated),0.1%,-8%,-5%,nt
CN(C)S(=O)(=O)c1cccc(NC(=S)NN=C(Cc2ccccc2)Cc2ccccc2)c1,-6.4%,-1%,-3%,1
CCOc1cc(C(=O)O)cc(Cl)c1OCC#N,-5.9%,1%,-6%,4
Cc1noc(NC(=O)c2cccc(C(F)(F)F)c2)c1Cl,0.2%,-13%,-9%,0
Nc1nc(Cl)cc(NCCc2ccccc2)n1,nt,nt,-24%,1
O=C(c1ccccc1F)N1CCCC(C(=O)N2CCN(c3ccccc3)CC2)C1 (configuration not stated),-3.3%,-3%,3%,-2
Nc1ccccc1-n1c(=O)n(Cc2ccccc2F)c(=O)c2[nH]cnc21,0.5%,1%,-7%,nt
CCN(CC)C(=O)c1[nH]cnc1C(=O)NC1CCN(C(=O)OC(C)(C)C)CC1,0.3%,20%,nt,nt
OC1(c2ccc(OC(F)F)cc2)CSC(=Nc2cccnc2)N1Cc1ccco1 (configuration not stated),0.2%,-18%,?,-16
CC(=O)N1c2ccc(S(=O)(=O)NCCC(=O)Nc3ccc(F)cc3C)cc2CC1C (configuration not stated),0.7%,-3%,-3%,nt
O=C1NCCCc2c1oc1ccc(O)cc21,0.2%,1%,12%,3
CCc1ccccc1NC(=S)N(CCN1CCCCCC1)Cc1ccco1,3.3%,11%,3%,-7
O=C(CN1CCCC1)NC12CC3CC(CC(C3)C1)C2,-1.1%,5%,-1%,4
CCOC(=O)CC(NC(=O)CCc1c(C)nc2ncnn2c1C)c1ccc(C)cc1 (configuration not stated),-0.6%,13%,-1%&1%,2[21.1 µM]
O=S(=O)(c1ccc(Cl)cc1)n1nnc2ccccc21,-0.4%,-2%,0%,4
Cc1noc(C(F)(F)F)c1C(=O)NNC(=O)c1ccccc1,0.6%,-4%,1%,-7
Cc1cc(C(=O)OCC(=O)Nc2cccc(S(N)(=O)=O)c2)c2ccccc2n1,0.9%,-4%,1%,-4
Cn1c2c(c3cc([N+](=O)[O-])ccc31)CCCC2,0.2%,-2%,-5%,nt
CCC(=O)NCCC(c1ccco1)c1ccccc1OC (configuration not stated),?,-8%,0%,18
CN(Cc1ccc(Cl)s1)C(=O)CSc1nnc(C2CC2)n1C1CC1,0.3%,4%,nt,nt
O=C(NCCN1CCOCC1)c1cc2ccccc2oc1=O,?,1%,-10%,nt
Oc1ccccc1/C=C/c1noc(-c2ccccc2O)n1,1.9%,-5%,-47%,-1
COc1cc(CNCc2cc(OC)ccc2OC)cc(OC)c1,0.7%,1%,6%,nt
CC(C)CCn1cnc2c(oc3nc4c(cc32)CCCC4)c1=O,4.3%,-13%,7%,-7
COc1ccc2c(c1OC)C(=O)N(c1ccccc1)C2=O,3.3%,25%,-19%,1
CN1CCCN(C(=O)c2ccc(Cl)s2)CC1,-0.4%,6%,-3%,nt
O=c1c(-c2nc3ccccc3s2)cccn1Cc1ccc(Cl)c(Cl)c1,?,?,-4%,?
Cc1ccc(CC(C(=O)O)C(C)C(=O)Nc2ccc(F)cc2)cc1 (configuration not stated),0.4%,41%,0%,nt
COc1cc(OC)cc(C(=O)NC2CCN(C(=O)N3c4ccccc4Sc4ccccc43)CC2)c1,-0.7%,-12%,21%,-6
Cc1ccc(Cn2ncc3c(N4CCN(CC#N)CC4)ncnc32)cc1,2.2%,1%,-3%,1
COc1ccc(OC)c(S(=O)(=O)NNC(=S)Nc2ccc3c(c2)OCO3)c1,2.3%,1%,-8%,nt
# New compounds follow.
SMILES,Rango-impB inh,Rango release inh,miR-21 FLuc,GLA inh pH 4.5
CCOC(=O)c1ccccc1NC(=O)CSc1nc2ccccc2c(=O)[nH]1,1.0%,-12%,-5%,-17
CC(O)CNc1ncnc2nc[nH]c12 (configuration not stated),-5.2%,8%,-2%,-1
O=C(/C=C/c1ccc(O)cc1)c1ccccc1,?,-12%,-43%,-4
Cc1ccc(C(=O)C2CCN(C(=S)NCCCOC(C)C)CC2)cc1,-0.4%,7%,6%,nt
COc1ccc(NC(=O)C(OC)c2ccccc2)cc1Cl (configuration not stated),-3.5%,-5%,-9%,-1
CC(C)CC(C(=O)NC1CCCC1)N(Cc1cccs1)C(=O)c1snc(C(N)=O)c1N (configuration not stated),0.5%,0%,1%,-9
CCCC(=Nc1ccc(N)cc1)C1=C(O)C(C(=O)OC)C(C)(C)CC1=O (configuration not stated),?,2%,-20%,-19
CC1(C)Cc2c(ccc3ccccc23)C(NNC(=O)c2cccnc2)=N1,-2.2%,21%,-2%,3
CC[n+]1c(/C=C/N(C)c2ccccc2)oc2ccc(F)cc21,-1.1%,7%,?,-7
C=CC[N+](C)(C)CCCNC(=O)/C=N/O,0.4%,-3%,-1%,7
COc1ccc(-c2c(C(C)=O)c(C)nc3sc4c(=N)n(N)cnc4c23)cc1,0.0%,-1%,-21%,5
CCCCNC(=O)C(=O)N/N=C/c1ccc(C(=O)OC)cc1,-3.0%,0%,-1%,2[21.1 µM]
O=C(CSc1nccc(=O)[nH]1)c1c[nH]c2ccccc12,3.0%,-3%,-22%,4
CSc1cccc(NC(=S)N(CCN(C)C)C(C)c2ccncc2)c1 (configuration not stated),-1.5%,-4%,-4%,3
Cc1noc(C)c1NC(=O)N(C)C[C@H]1Oc2c(cccc2N(C)C)C(=O)N([C@H](C)CO)C[C@@H]1C,-2.6%,18%,nt,nt
CC(C)n1c(SCC(=O)Nc2nncs2)nnc1-c1ccco1,-0.6%,-11%,0%,nt
COc1ccc(NC(=O)C2CCCN(S(=O)(=O)c3c(C)n[nH]c3C)C2)cc1OC (configuration not stated),3.2%,-12%,-9%&4%,4
CC(C)NC(=O)NC(=O)COC(=O)c1ncc(Cl)c(Cl)c1Cl,0.3%,7%,2%,-3[21.1 µM]
Cc1cccc(C(=O)N[C@H](C(=O)Nc2nc3ccc(S(C)(=O)=O)cc3s2)C(C)C)c1,-2.6%,-13%,0%,4
O=C(NNC(=O)C1C2C=CC(C2)C1C(=O)O)c1ccccc1O (configuration not stated),5.9%,-9%,1%,nt
CC(C)(C)OC(=O)N1CCCC(C(=O)Nc2cccc(C(=O)NC3CC3)c2)C1 (configuration not stated),-0.7%,-4%,nt,nt
CC(=O)Nc1ccc2c(c1)nc1n2CCSC1,?,1%,-19%,-16
CC(=O)N(CN1C(=O)CCC1=O)c1ccc(Cl)c(Cl)c1,-1.5%,0%,-1%,10
COc1cccc(C(=O)Nc2ccc(F)c(F)c2F)c1,-0.3%,-5%,-57%,7
O=C(CC(O)(c1ccccc1)C(F)(F)F)c1cccs1 (configuration not stated),?,5%,-3%,-7
CC(C)c1ccc(C2(C)NC(=O)N(CC(=O)NC3(C#N)CCCC3)C2=O)cc1 (configuration not stated),-0.8%,2%,nt,nt
O=C(Cn1ccc([N+](=O)[O-])n1)N1CCCCCC1,2.1%,15%,-4%,-2
CCOC(=O)C1(C(F)(F)F)N=C(C(F)(F)F)Nc2ccc(F)cc21 (configuration not stated),1.1%,2%,-3%,-14
CC(C)CN1C(=O)c2ccc(C(=O)Nc3ccccn3)cc2C1=O,-5.1%,0%,-18%,-3

# Quoted at random: 7 entries already listed
SMILES,Rango-impB inh,Rango release inh,miR-21 FLuc,GLA inh pH 4.5
O=C(NNC(=O)C1C2C=CC(C2)C1C(=O)O)c1ccccc1O (configuration not stated),5.9%,-9%,1%,nt
CC(C)c1ccc(C2(C)NC(=O)N(CC(=O)NC3(C#N)CCCC3)C2=O)cc1 (configuration not stated),-0.8%,2%,nt,nt
COc1ccc(NC(=O)C2CCCN(S(=O)(=O)c3c(C)n[nH]c3C)C2)cc1OC (configuration not stated),3.2%,-12%,-9%&4%,4
CC(C)NC(=O)NC(=O)COC(=O)c1ncc(Cl)c(Cl)c1Cl,0.3%,7%,2%,-3[21.1 µM]
CC(C)CN1C(=O)c2ccc(C(=O)Nc3ccccn3)cc2C1=O,-5.1%,0%,-18%,-3
O=C(CC(O)(c1ccccc1)C(F)(F)F)c1cccs1 (configuration not stated),?,5%,-3%,-7
COc1cccc(C(=O)Nc2ccc(F)c(F)c2F)c1,-0.3%,-5%,-57%,7

# Some of the compounds tested (hit frequency here may not be typical).
